TRPML1 ag: human mucolipin-1 channel agonism | activation, % (no concentration beside the values) | TRPML1-expressing cells, Ca2+ dye fluorescence, FDSS; host cell line not named in the record; reference of the full effect not given here | AID 624414 | 410,000 tested, 0.12% active | Q9GZU1; in the data active = activation above about 50%; inconclusive = about 30% to 50%; inactive = below about 30%; further: 0% is about no effect; the text of the record puts the active cut at 80%
Target sequence (Q9GZU1 whole entry, looked up): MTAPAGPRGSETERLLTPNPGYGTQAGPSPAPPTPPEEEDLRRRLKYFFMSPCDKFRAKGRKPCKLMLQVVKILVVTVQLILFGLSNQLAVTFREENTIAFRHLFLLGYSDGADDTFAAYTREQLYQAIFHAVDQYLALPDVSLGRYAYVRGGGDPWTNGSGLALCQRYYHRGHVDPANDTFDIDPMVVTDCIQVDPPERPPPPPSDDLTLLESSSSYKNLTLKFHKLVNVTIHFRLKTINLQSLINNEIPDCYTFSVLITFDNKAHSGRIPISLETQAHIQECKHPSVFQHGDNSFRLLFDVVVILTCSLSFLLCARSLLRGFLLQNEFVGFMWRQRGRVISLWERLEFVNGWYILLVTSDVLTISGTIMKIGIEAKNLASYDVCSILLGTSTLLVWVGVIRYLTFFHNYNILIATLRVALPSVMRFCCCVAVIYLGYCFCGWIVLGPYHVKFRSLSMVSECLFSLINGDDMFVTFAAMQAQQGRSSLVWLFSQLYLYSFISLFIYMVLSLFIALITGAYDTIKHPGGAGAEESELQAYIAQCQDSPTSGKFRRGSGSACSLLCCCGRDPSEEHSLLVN
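TRPML1-DL cells, Tet-induced overnight (~16 h, 37 degrees C), loaded 45-90 min at room temperature with Ca8 no-wash calcium dye plus quencher. FDSS fluorescence: 10 s baseline, compound pin-transfer, 110 s agonist read, then EC80 54-4 (4uM final) and 110 s antagonist read.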
Six1-Eya2 inh: Six1/Eya2 interaction inhibition; Q15475+O00167; AlphaScreen GST-Six1/His-Eya2 binding, biochemical; active compounds read low; control for the full effect not named in the record; activity change, % (test concentration not listed); 360,000 tested, 0.56% active; in the data active = activity change below about -65%; inconclusive = about -30% to -65%; inactive = above about -30%; further: on the % scale 0 is the no-effect control and ±100 the full control effect
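Compounds are tested against tagged Six1 and Eya2 proteins bridged by glutathione donor and nickel acceptor beads; after a one-hour incubation at 37 °C without light, AlphaScreen emission is recorded.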
D2 ag: agonists of human D2 dopamine receptor (beta-arrestin); AID 624465; P14416; activation, % (concentration not given with the values); 360,000 tested, 0.084% active; DiscoveRx PathHunter D2 beta-arrestin, luminescence, 90 min; 100% = 57 uM dopamine signal; in the data active = activation above about 40%; inconclusive = about 15% to 40%; inactive = below about 15%; further: compound concentration not given in the record; the text of the record calls up to 30% inactive
Target sequence (P14416 whole entry, looked up): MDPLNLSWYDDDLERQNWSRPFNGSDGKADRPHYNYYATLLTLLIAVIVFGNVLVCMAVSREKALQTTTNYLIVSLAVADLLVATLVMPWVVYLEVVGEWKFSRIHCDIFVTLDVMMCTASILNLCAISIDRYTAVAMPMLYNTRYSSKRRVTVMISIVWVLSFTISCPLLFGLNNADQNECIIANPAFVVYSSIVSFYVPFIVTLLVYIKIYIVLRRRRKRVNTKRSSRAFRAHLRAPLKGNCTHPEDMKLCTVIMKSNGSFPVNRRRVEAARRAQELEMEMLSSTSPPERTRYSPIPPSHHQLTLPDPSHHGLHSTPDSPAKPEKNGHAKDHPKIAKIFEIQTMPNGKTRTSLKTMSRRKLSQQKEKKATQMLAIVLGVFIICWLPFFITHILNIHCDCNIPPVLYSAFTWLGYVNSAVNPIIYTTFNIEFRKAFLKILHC
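Agonist mode: compounds alone added to overnight-plated D2 PathHunter cells for 90 min at 37 C, with 57 uM final dopamine (EC100) defining full response. Beta-arrestin recruitment detected by chemiluminescent reagent, read after 1 h at ambient temperature.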
PINK1 modulator: changes PINK1 expression; Potency, µM (highest dose often 76.6 µM), for the others: at the highest dose activation (PINK1 increase), actives largely listed as activators; PINK1 immunofluorescence, high-content cytometry, 24 h; AID 624263; 410,000 tested, 0.2% active; active = well fitted activation curve with a large enough effect; inconclusive = small, poorly fitted or top-dose-only effect; inactive = flat fitted curve, though single readings scatter; cell line not stated here;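 further: potency means the concentration at half of the fitted maximal effect; % of control where 0% means no effect; nearly all actives have a fitted effect of over 65% in size; a mitochondrial uncoupler was the plate control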
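Cells are seeded, rested 12 hours, then given compound at five concentrations or DMSO for 24 hours. After fixation, blocking and antibody staining, PINK1 amount and mitochondrial localization are scored; CCCP serves as control.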
TRPML1 inh: human mucolipin-1 channel inhibition; activity change, negative = inhibition, % (test concentration not listed); AID 624415; TRPML1-inducible cells, Ca2+ dye fluorescence, FDSS; active compounds read low; inhibition of EC80 agonist-evoked calcium signal; 390,000 tested, 0.02% active; Q9GZU1; in the data active means activity change below about -50%; inconclusive means about -30% to -50%; inactive means above about -30%;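 further: stimulus is agonist 54-4 at its EC80 concentration; on the % scale 0 is the no-effect control and ±100 the full control effect; compound concentration not given in the record; the text of the record puts the active cut at -80%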
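Tet-induced TRPML1-DL cells loaded with Ca8 no-wash calcium dye were read kinetically on FDSS. Compound addition was followed by EC80 agonist 54-4 (4 uM final); inhibition was read over 110 s.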
CtBP-E1A inh: blocks the CtBP interaction with E1A | 340,000 tested, 0.49% active | AID 651724 | activity change, % (concentration not given with the values) | AlphaScreen GST-E1A/His-CtBP binding, 1536-well; active compounds read low; control for the full effect not named in the record; in the data active means activity change below about -65%; inconclusive means about -30% to -65%; inactive means above about -30%; further: on the % scale 0 is the no-effect control and ±100 the full control effect
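Homogeneous bead-based format: GST-tagged E1A captured on glutathione donor beads, His-tagged CtBP on nickel acceptor beads; compounds precede bead addition by 2 h at 37 °C.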
An asterisk follows results filed as active; u = inconclusive; x = no result given; [ ] = another dose, or the depositor's remark.

Values run as follows: D2 ag, Six1-Eya2 inh, TRPML1 ag, PINK1 modulator, TRPML1 inh, CtBP-E1A inh
- C/C(N)=C(/C#N)C(=O)COC(=O)CC12CC3CC(CC(C3)C1)C2
→ -1.5, 1.8, 0.6, -0.7%, 2.8, -1.0
- Cc1ccc(-n2ncc(C(=O)NC3CC3)c2C2CCN(C(=O)OC(C)(C)C)CC2)c(C)c1
→ -0.7, -1.7, 0.9, -0.1%, 14.7, 2.4
- COc1ccc(/C=N/NC(=O)CCNc2n[nH]c(=O)[nH]c2=O)c(OC)c1
→ 1.9, -2.5, 1.0, -2.8%, 2.6, 2.4
- O=C(/C=C/c1ccc(F)cc1)N1CCCN(C(=O)/C=C/c2ccc(F)cc2)CC1
→ 2.0, -0.8, 1.3, -0.8%, -3.7, -1.9
- COc1ccc(N2CCN(C(=O)c3cnc(N4CCCC4)nc3C)CC2)cc1
→ x, x, 2.9, 1.1%, 3.3, x
- Cc1ccccc1NC(=O)CN(C)S(=O)(=O)c1cccc2cccnc12
→ -0.6, -4.7, -0.7, 0.5%, 7.7, 3.0
- COCCCn1c(=N)c(C(=O)NCc2ccco2)cc2c(=O)n3cccc(C)c3nc21
→ x, x, -0.3, 2.1%, 4.0, x
- Cc1cccc(CSc2nncc(=O)[nH]2)c1
→ 0.4, 18.7, -0.9, 0.5%, -8.1, 3.4
- CCOC(=O)C1=C(C)NC2=C(C1c1ccc([N+](=O)[O-])cc1)S(=O)(=O)c1ccccc12 (stereo not drawn)
→ -2.7, -17.4, 0.1, 0.1%, -5.2, -16.6
- O=C(CC(=O)Nc1ccc(Cl)cc1)N/N=C\c1cccc(F)c1
→ -2.0, 14.0, 0.0, 2.0%, 16.4, 0.0

Further entries.
Values run as follows: D2 ag, Six1-Eya2 inh, TRPML1 ag, PINK1 modulator, TRPML1 inh, CtBP-E1A inh
- COc1ccc2c(c1OC)CCC2=O
→ -3.5, 2.6, -0.7, 1.8%, -0.1, -3.9
- O=C(NC1CCCC1)c1ccc2nc(-c3ccco3)c(-c3ccco3)nc2c1
→ 6.6, u, -0.2, 1.9%, 11.3, -18.1
- O=C(NC(=O)c1ccccc1F)Nc1nc(-c2cccs2)cc(C(F)(F)F)n1
→ 1.9, -4.5, -1.0, 7.9%, -0.3, -1.8
- COc1cc2c(cc1OC)CN(Cc1nc3ccsc3c(=O)[nH]1)CC2
→ -0.5, -10.4, 2.4, -2.7%, -2.3, -15.8
- C/C(N)=C(/C#N)C(=O)CSc1nnc(-c2ccccc2Br)o1
→ -3.5, 3.9, -0.3, 10.4%, -1.5, 8.9
- COc1ccc(N(CC(=O)N2CCC(C(N)=O)CC2)S(=O)(=O)c2ccccc2)cc1
→ 1.8, 5.1, -0.5, 2.7%, 14.2, -7.2
- CCOc1ccc(NC(=O)c2ccc(NC(=O)CSc3nc4ccccc4c(=O)[nH]3)cc2)cc1
→ -0.3, 16.7, -0.4, 9.4%, -4.2, -9.1
- CCOC(=O)C1(S(=O)(=O)c2ccccc2)CCN(Cc2ccc(Cl)cc2)CC1
→ 4.1, -4.1, 1.7, -5.5%[38.3 µM], 67.5, -6.4
- CCN(C[C@H]1N[C@@](C)(C(=O)OC)[C@H]2C(=O)N(Cc3ccccc3)C(=O)[C@@H]12)S(=O)(=O)c1ccc(C)cc1
→ -3.0, 3.4, -1.3, 0.0%, -9.6, 4.0
- O=C(C1=C(O)C(=O)N(CCOCCO)C1c1ccccn1)c1cccs1 (stereo not drawn)
→ -2.0, -7.9, -0.1, 0.4%, -6.7, -1.3

(next part)
Values run as follows: D2 ag, Six1-Eya2 inh, TRPML1 ag, PINK1 modulator, TRPML1 inh, CtBP-E1A inh
- O=C(NCc1ccccc1Cl)c1cc([N+](=O)[O-])ccc1Cl
→ 0.5, -0.1, 1.5, 3.4%, 3.4, x
- CCNC(=O)NC(=O)C(C)OC(=O)C(C)(C)Oc1ccc(Cl)cc1 (stereo not drawn)
→ -0.8, -1.5, -0.5, 3.3%, 6.9, u
- COc1cc(NC(=O)c2ccc3c(c2)OCO3)ccc1NC(=O)c1cccs1
→ -3.8, -22.0, 0.4, 2.5%, 2.0, -22.2
- O=C(NCCc1nc2ccccc2[nH]1)c1cccc(Br)c1
→ -5.8, 0.0, 0.3, 0.9%, 15.1, -1.2
- Cc1cccc(N2CCN(C(=O)c3cc4n(n3)C(C(F)(F)F)CC(c3ccco3)N4)CC2)c1C (stereo not drawn)
→ -6.0, -16.6, -0.2, 0.3%, -12.3, -9.0
- CS(=O)(=O)c1ccc(C(=O)OCC(=O)Nc2cccc(S(=O)(=O)N3CCCC3)c2)cc1
→ -4.2, -1.0, 0.2, 6.3%, -4.1, -2.1
- CCC(NC(=O)CCC(=O)N1CCN(S(=O)(=O)c2ccc(C)cc2)CC1)c1ccc(C)cc1 (stereo not drawn)
→ -0.4, 4.5, -0.1, -0.7%, -3.4, x
- O=C(NNC(=O)c1ccccc1[N+](=O)[O-])c1cnccn1
→ 1.4, -1.1, 1.9, 1.4%[38.3 µM], -13.2, -10.1
- N#CCCNC(=O)CCN1CCCCC1
→ -3.6, 12.3, 1.1, 0.6%, 2.4, 10.4
- CCN(CC)S(=O)(=O)c1ccc(S(=O)(=O)N2CCN(C(=O)c3ccco3)CC2)cc1
→ 2.5, 5.1, 2.5, 3.0%, -20.2, -3.6

Carrying on.
Values run as follows: D2 ag, Six1-Eya2 inh, TRPML1 ag, PINK1 modulator, TRPML1 inh, CtBP-E1A inh
- CCOc1ccc(CCNC(=O)c2cnccn2)cc1OCC
→ -2.9, 4.6, -1.6, -0.2%, 11.8, 7.9
- CCOCCCNC(=O)CN1C(=O)C(CC)Oc2ccccc21 (stereo not drawn)
→ 0.6, 4.6, 0.3, -2.5%[38.3 µM], 29.1, -6.6
- O=C(COC(=O)c1ccccc1C(=O)c1ccc(Cl)cc1)NC(c1ccccc1)c1ccccc1
→ -7.2, 11.8, 0.0, 0.0%, -21.8, x
- CCN(CC)S(=O)(=O)c1ccc(C(=O)Nc2cc3oc4ccccc4c3cc2OC)cc1
→ -0.1, 7.2, 1.2, 9.4%, -29.4, -6.4
- C[C@]12CC[C@@H]3c4ccc(O)cc4CC[C@H]3[C@@H]1C[C@@H](O)[C@@H]2O
→ 6.0, -1.7, 0.1, 0.0%, -2.8, -0.3
- Cc1ncc(CSc2ccc(Cl)cc2)c(CO)c1O
→ -4.8, 6.8, -1.0, -0.3%, 9.4, -0.7
- O=C(OCn1nnc2ccccc2c1=O)c1ccc(O)cc1
→ -3.7, 8.7, 1.2, 0.0%, -9.3, -3.3
- CCOc1cc(C(=O)Nc2cc3c(cc2N2CCCC2)n(C)c(=O)c(=O)n3C)cc(OCC)c1OCC
→ x, x, -0.3, 1.2%, 19.3, x
- COc1ccc2[nH]c(=O)c(CN(Cc3ccc(C)cc3)Cc3nnnn3CC3CCCO3)cc2c1 (stereo not drawn)
→ -0.6, 0.3, 0.4, -0.8%, -16.9, -9.5
- CCOC(=O)C1=C(CN2CCN(c3cccc(Cl)c3)CC2)NC(=O)NC1c1ccc(Cl)cc1 (stereo not drawn)
→ x, x, -1.0, 1.5%, -8.5, x

New compounds follow.
Values run as follows: D2 ag, Six1-Eya2 inh, TRPML1 ag, PINK1 modulator, TRPML1 inh, CtBP-E1A inh
- CCc1ccc(S(=O)(=O)c2nnn3c2nc(NCc2cccc(OC)c2)c2cc(Cl)ccc23)cc1
→ x, x, 0.2, 0.0%, 19.8, x
- Cc1ccc(NC(=O)C(C)N2CCCc3ccccc32)cc1S(=O)(=O)N1CCOCC1 (stereo not drawn)
→ -1.5, -20.1, -1.1, -0.6%, -2.7, -14.9
- O=C(NCCOc1ccccc1-c1ccccc1)c1ccco1
→ -1.5, -7.4, 3.5, 0.4%, 8.0, 7.8
- CC1=C(C(=O)Nc2cccnc2)C(c2ccccn2)n2nnnc2N1 (stereo not drawn)
→ -1.0, -2.0, -0.1, x, -4.1, 5.3
- CCOC(=O)N1CCN(Cc2nc(-c3ccc(C)cc3)no2)CC1
→ -0.6, -0.9, 0.3, -0.9%, 3.8, 9.0
- CCOc1ccccc1N(CC(=O)NC1CCCC1)C(=O)CNC(=O)c1cccs1
→ -0.6, -0.9, -0.3, 0.0%, 31.6, 0.0
- Cc1ccc(NC(=O)CNC(=O)c2ccco2)c(Cl)c1
→ 4.3, 2.0, 1.1, 1.1%, -2.4, x
- CCOC(=O)/C=C/C(=O)OCC(=O)N1CCN(C(=O)c2ccco2)CC1
→ -1.5, 0.8, 0.0, u, -16.7, 3.0
- CC(=O)c1ccc(N2C(=O)N(Cc3ccccc3C#N)c3ccccc3S2(=O)=O)cc1
→ x, x, -0.4, 2.4%, 8.3, x
- COc1ccc(C(=O)Nc2ccc(N3CCN(C(=O)c4ccccc4)CC3)cc2)cc1[N+](=O)[O-]
→ -4.5, -27.3, 0.1, -0.3%, u, -9.3

Going on with the list:
Values run as follows: D2 ag, Six1-Eya2 inh, TRPML1 ag, PINK1 modulator, TRPML1 inh, CtBP-E1A inh
- CC(=O)c1ccc(NC(=S)NCCCn2ccnc2)cc1
→ -2.8, -8.2, 1.3, -0.8%, 7.7, 0.0
- O=C(NCCN1CCN(c2ccccc2)CC1)c1cccn2c(=O)c3cc(Cl)ccc3nc12
→ -2.1, 7.4, 0.4, 3.8%[38.3 µM], 6.2, 1.3
- Cc1onc(-c2ccccc2)c1C(=O)Nc1ccc(C(=O)N2CCCCC2)cc1
→ -1.7, -0.6, -0.1, 1.6%, 3.1, 6.9
- Nn1c(SCC(=O)N2CCCC2)nnc1C1CCCCC1
→ -3.2, -0.6, -0.2, 0.7%, -0.7, 1.3
- O=C1NC[C@@H](Cc2ccc(O)cc2)N(CCc2cc(C(F)(F)F)cc(C(F)(F)F)c2)C1=O
→ x, 18.8, -0.4, 0.1%, x, -22.6
- CC(C)C(NS(=O)(=O)c1ccc2c(c1)oc(=O)n2C)C(=O)NCCc1ccc(Cl)cc1 (stereo not drawn)
→ x, x, -0.1, 0.3%, 4.8, x
- Cc1cc(NC(=O)c2cc3ccccc3o2)no1
→ 0.6, -4.9, 0.4, -0.5%, -0.7, -2.1
- COc1ccc(N2C(=O)CNC2=S)cc1
→ -3.7, 5.1, -0.5, 3.3%, -3.1, -3.8
- CC(C)(C)C1CCc2nc(NC(=O)c3cccc(Cl)c3)sc2C1 (stereo not drawn)
→ x, x, 0.1, 9.1%, -2.1, x
- CC(C)(C)c1ccc(S(=O)(=O)N2CCN(c3ncccn3)CC2)cc1
→ 6.9, 5.9, 2.7, 6.5%, -4.4, 13.3

An excerpt from above in order of formula weight, falling.
Values run as follows: D2 ag, Six1-Eya2 inh, TRPML1 ag, PINK1 modulator, TRPML1 inh, CtBP-E1A inh
- CC(C)(C)c1ccc(S(=O)(=O)N2CCN(c3ncccn3)CC2)cc1
→ 6.9, 5.9, 2.7, 6.5%, -4.4, 13.3
- Nn1c(SCC(=O)N2CCCC2)nnc1C1CCCCC1
→ -3.2, -0.6, -0.2, 0.7%, -0.7, 1.3
- Cc1cc(NC(=O)c2cc3ccccc3o2)no1
→ 0.6, -4.9, 0.4, -0.5%, -0.7, -2.1

Screens deposited in PubChem by National Center for Advancing Translational Sciences (NCATS).
